Compound activity as filed in PubChem.
HSV augment – HSV replication enhancement | HSV replication augmentation in cells, fold increase | maximum fold increase | 0.005% of 220,000 active | AID 1956;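 active = peak rise of 1.5-fold or more in the series; inconclusive = self-fluorescent or not available for retest; tested in PC3 cells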;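 also: first round at 10 µM; read as green reporter fluorescence; hits show the peak of a series up to 25 µM; 1 = signal of infected wells without compound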
INS promoter inh – TRM-6 insulin promoter activity inhibition. TRM-6 cells (human fetal islet line), insulin promoter-eGFP reporter, imaging; reporter expression induced with tamoxifen. inhibition, % at 2 µM. AID 1273. 0.9% of 130,000 active;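 active = inhibition above the mean plus 3 SD, with well images judged a real hit on visual review, cut at about 60% in these data, passing the limit was not always enough; inconclusive = inhibition over the cutoff but images rejected on review; inactive = inhibition not above the cutoff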
GALR2 ag – agonists of human galanin receptor 2 (GALR2); 0.48% of 140,000 active; activation, %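 (tested at 5 µM)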; GALR2-expressing cells, agonist activation read-out; O43603;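 active = above mean plus 3 SD of all compounds, about 5% in these data, not always enough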;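 also: 0% = vehicle buffer wells and 100% = reference agonist at full effect; tested in CHO reporter cells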
PKD1 inh – PKD1 (human) kinase inhibition | PKD1 kinase fluorescence polarization assay | Q15139 | inhibition, %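 (about 10 µM by stock and volumes)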 | 0.056% of 200,000 active;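 active = inhibition of 50% or more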;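 also: controls were vehicle for no effect and a reference inhibitor for full effect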
Target sequence (Q15139 whole entry, looked up): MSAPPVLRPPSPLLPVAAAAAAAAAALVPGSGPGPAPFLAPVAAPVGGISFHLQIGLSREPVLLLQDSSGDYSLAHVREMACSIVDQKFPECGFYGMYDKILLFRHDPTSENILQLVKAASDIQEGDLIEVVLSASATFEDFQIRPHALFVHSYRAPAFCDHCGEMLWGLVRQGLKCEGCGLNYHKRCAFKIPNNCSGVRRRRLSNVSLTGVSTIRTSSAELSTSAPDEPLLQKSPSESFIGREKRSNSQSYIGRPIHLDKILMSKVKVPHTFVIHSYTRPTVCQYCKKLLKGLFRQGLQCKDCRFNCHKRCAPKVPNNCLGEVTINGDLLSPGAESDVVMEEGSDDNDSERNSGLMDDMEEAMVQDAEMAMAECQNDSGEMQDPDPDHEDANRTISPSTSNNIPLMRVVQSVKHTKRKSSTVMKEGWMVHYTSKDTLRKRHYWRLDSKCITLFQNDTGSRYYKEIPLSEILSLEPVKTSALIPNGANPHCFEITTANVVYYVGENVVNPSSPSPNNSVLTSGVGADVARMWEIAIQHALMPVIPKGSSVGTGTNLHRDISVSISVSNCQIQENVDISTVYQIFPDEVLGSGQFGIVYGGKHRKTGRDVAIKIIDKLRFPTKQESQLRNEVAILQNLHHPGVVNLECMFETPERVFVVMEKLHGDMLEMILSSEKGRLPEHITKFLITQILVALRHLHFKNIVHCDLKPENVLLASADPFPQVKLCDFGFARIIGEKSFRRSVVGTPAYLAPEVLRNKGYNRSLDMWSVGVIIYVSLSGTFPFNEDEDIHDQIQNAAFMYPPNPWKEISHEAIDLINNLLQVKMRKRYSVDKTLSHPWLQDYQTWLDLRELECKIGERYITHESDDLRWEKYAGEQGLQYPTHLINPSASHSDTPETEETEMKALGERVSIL
RGS16-Gao HTS – regulators of human RGS16-Galphao interaction. O15492+P09471. bead-based flow cytometry RGS16-Galphao binding, fluorescence; actives lie on both sides. binding response (% of control), % at 10 µM. 0.38% of 220,000 active;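 active = below 25% or above 175%, edge rows of some plates excepted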;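 also: Galphao activated by GDP with aluminum fluoride before binding; 100% = wells without compound and 0% = beads without RGS; some results beyond the cut were filed as inactive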
INS promoter inh cell count – second read-out of INS promoter inh, no call of its own (marks repeat the call); normalized cell count, %; measured here: cell count, toxicity; reference of the scale not given here;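 cells exposed to compound for 48 h; stained nuclei by imaging scaled within each plate; lower means fewer cells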
HSV augment primary fold – also measured in HSV augment; calls as there; fold increase; compound at 10 µM; measured here: primary screen fold increase 10 uM; tested in PC3 cells;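 GFP signal in the first replicate; 1 = infected wells without compound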
* hit, by the source's call; i = inactive; ? = inconclusive; / = no result given. Not a hit list; overall some 1.2% were active at least once.

SMILES	HSV augment	HSV augment primary fold	INS promoter inh	INS promoter inh cell count	GALR2 ag	PKD1 inh	RGS16-Gao HTS
CN(C)c1ccc(CN(C(=O)C2COc3ccccc3O2)C2CCS(=O)(=O)C2)cc1 (stereo not drawn)	i	0.98	20	134	-0.2	-3	97
CCCC(=O)NC(C)c1nc2ccccc2n1C (stereo not drawn)	i	1	/	/	-1.8	0	105
COCCN(CCOC)Cc1cc(=O)oc2cc3c(cc12)CCC3	i	0.95	8	94	-1.2	-1	105
COc1ccc(C)cc1-n1nc2ccccc2n1	i	1.1	18	75	/	-1	98
CCOc1ccccc1C1C(C(=O)Nc2ccc(OC)cc2)=C(C)Nc2nc(CCCO)nn21 (stereo not drawn)	i	1.2	/	/	-1.8	-10	103
COc1ccc(Cl)cc1C(=O)N(Cc1nc(-c2cccc(C)c2)no1)C(C)C	i	0.98	/	/	-0.7	7	78
CCOc1cc(/C=N/Nc2nc(-c3cccc(S(=O)(=O)N4CCCC4)c3)cs2)ccc1O	i	0.56	57	143	0.8	5	107
COCCN1CC(=O)N(c2cccc(C)c2C)C(c2ccc(Cl)cc2)C1=O (stereo not drawn)	i	0.94	/	/	-0.9	-11	97
O=C(Nc1cccc2[nH]ncc12)c1ccc(F)cc1	i	0.78	67	110	-2.0	-13	91
CCCN(CC1CC1)C(=S)Nc1ccc(C(C)=O)cc1	i	0.95	/	/	/	-1	102
Cc1ccccc1Cn1cccc1/C=C1/C(=N)N2C=CSC2=NC1=O	i	1	/	/	-1.1	1	103
C=CCN=C1S/C(=C\c2ccc(Cl)cc2)C(=O)N1CC=C	i	1.1	/	/	/	/	114
C/C(=C\c1ccccc1)C(=O)NCc1ccco1	i	0.98	/	/	/	0	98
NS(=O)(=O)c1cccc(NC(=O)CSc2nnc(-c3ccccc3F)n2C2CC2)c1	i	1	/	/	/	/	101
Cc1ccnc(NS(=O)(=O)c2ccc3c(c2)CCO3)c1	i	1.1	/	/	/	/	110
COc1ccccc1NC(=O)C1=C(C)Nc2nnnn2C1c1ccccc1OC (stereo not drawn)	i	0.91	-115	90	0.3	6	108
CCC(SC1=N/C(=C/c2ccccc2OC)C(=O)N1c1ccccc1)C(=O)Nc1cc(C)on1 (stereo not drawn)	i	0.97	/	/	0.8	9	98
CCC(=O)OC1=C2C(=Nc3c(c(=O)n(C)c(=O)n3C)C2c2ccccc2)c2ccccc21 (stereo not drawn)	/	/	17	85	-2.1	-6	/
CCOc1ccccc1N1CCN(C(=O)CC(C)C)CC1	i	0.99	-25	95	0.4	1	103
CCOC(=O)N/N=C/c1cccnc1	i	0.96	/	/	/	-7	100
CCOc1ccc(OCC)c(NC(=O)C2CCN(S(=O)(=O)c3cccc4nonc34)CC2)c1	i	0.96	17	122	-1.6	-3	108
COc1cc(-c2nnc(COC(=O)c3c4c(nc5ccccc35)CCCC4)o2)cc(OC)c1OC	i	0.93	-37	99	-1.1	8	103
COc1ccc(S(=O)(=O)N(C)CC(=O)NCc2cccnc2)cc1OC	i	0.94	-11	117	-1.2	-4	106
Cc1cc(C(F)(F)F)nn1CC(=O)N1CCCCC1C (stereo not drawn)	i	0.99	/	/	0.0	7	109
O=[N+]([O-])c1ccc(-n2cccn2)c(-c2nn[nH]n2)c1	i	0.97	0	177	/	-1	106

Next structures:
SMILES	HSV augment	HSV augment primary fold	INS promoter inh	INS promoter inh cell count	GALR2 ag	PKD1 inh	RGS16-Gao HTS
CC(=O)NN1C(=O)c2ccccc2NC1c1ccc([N+](=O)[O-])o1 (stereo not drawn)	i	0.9	-80	139	/	-2	104
O=S(=O)(c1ccc(Cl)cc1)N1CCCN(c2ccc(C(F)(F)F)cn2)CC1	i	1	/	/	/	/	88
CC(C)Oc1ccc(CCc2n[nH]c(=S)n2Cc2ccccc2)cc1	i	1	/	/	-1.8	2	98
Cc1cccn2c(CNCCSc3nccn3C)c(C(=O)N3CCCCC3)nc12	i	0.83	/	/	/	/	82
Cc1nc2nc(Cc3ccccc3)nn2c(C)c1Cl	i	0.79	28	172	-0.7	1	110
N#CCCn1cnc2c(=S)nc[nH]c21	i	0.95	-321	56	-0.5	-3	63
Cc1c(NC2(c3nnnn3-c3ccc(Br)cc3)CCCCC2)c(=O)n(-c2ccccc2)n1C	i	1	58	103	-2.3	-1	142
N#Cc1c(-c2cccnc2)cc(-c2ccccc2)nc1N	i	0.93	/	/	/	/	104
O=C(Nc1ccccc1)N1CCN(c2ncccn2)CC1	i	0.92	3	184	-0.7	2	93
NC(=O)C1=C[C@H](c2ccc(C(F)(F)F)cc2)C[C@H](OCCCCO)O1	i	0.8	/	/	/	-1	103
O=C(C1CCCN(c2ncccn2)C1)N1CCc2ccccc21 (stereo not drawn)	i	1	-3	79	0.1	-1	95
O=C(Nc1cccc([N+](=O)[O-])c1)Nc1ccc(Cl)cn1	i	0.99	18	75	/	0	105
Cc1ccc(-c2ccc(/C=C(\C#N)C(=O)Nc3cc(C)nn3-c3ccccc3)o2)cc1	?	/	/	/	-1.1	-12	104
COc1ccc(CC(=O)N2CCN=C2SC)cc1	i	0.7	/	/	-0.6	-2	105
NS(=O)(=O)c1ccc(CNC(=O)C2(c3ccc(Cl)cc3)CC2)cc1	i	1	/	/	/	-4	98
CC1CCN(CC(C)OC(=O)c2ccc3c(c2)OCCO3)CC1 (stereo not drawn)	i	0.92	/	/	-1.4	-9	103
Clc1ccc(Cn2ncc3c(N4CCCC4)ncnc32)cc1	i	0.8	-5	110	-1.4	4	126
O=C(NCCN1CCOCC1)c1cccc(S(=O)(=O)N2CCCCCC2)c1	i	0.88	-42	164	1.8	-1	103
C/C(=N/NC(=O)CN1CCN(S(=O)(=O)c2ccc(Br)cc2)CC1)c1ccco1	/	/	/	/	1.1	-9	100
O=C1CCCN1CCC1CCCCN1Cc1nc(-c2cnccn2)no1 (stereo not drawn)	i	0.94	/	/	/	-9	109
CC(=O)Nc1ccc(S(=O)(=O)NC(C)C(=O)OCC(=O)NC2CCCC2)cc1 (stereo not drawn)	i	1	-8	98	-1.6	6	103
CCOC(=O)N1CCN(C(=O)C(=O)N/N=C/c2ccc(OC)cc2OC)CC1	i	1.2	/	/	/	/	99
O=c1c([N+](=O)[O-])cccn1Cc1ccc(F)cc1Cl	i	0.94	73*	83*	/	-3	73
Cc1ccsc1C(=O)Nc1ccccc1N1CCOCC1	i	0.92	54	62	-3.1	-3	101
Cc1nc2ccccc2n1CC(=O)OCC(=O)Nc1ccc2c(c1)OCCO2	i	1	42	113	-1.7	-8	102

Looked up by structure from above, five records:
SMILES	HSV augment	HSV augment primary fold	INS promoter inh	INS promoter inh cell count	GALR2 ag	PKD1 inh	RGS16-Gao HTS
CCOc1cc(/C=N/Nc2nc(-c3cccc(S(=O)(=O)N4CCCC4)c3)cs2)ccc1O	i	0.56	57	143	0.8	5	107
C=CCN=C1S/C(=C\c2ccc(Cl)cc2)C(=O)N1CC=C	i	1.1	/	/	/	/	114
O=[N+]([O-])c1ccc(-n2cccn2)c(-c2nn[nH]n2)c1	i	0.97	0	177	/	-1	106
Clc1ccc(Cn2ncc3c(N4CCCC4)ncnc32)cc1	i	0.8	-5	110	-1.4	4	126
COc1cc(-c2nnc(COC(=O)c3c4c(nc5ccccc35)CCCC4)o2)cc(OC)c1OC	i	0.93	-37	99	-1.1	8	103

Going on with the list.
SMILES	HSV augment	HSV augment primary fold	INS promoter inh	INS promoter inh cell count	GALR2 ag	PKD1 inh	RGS16-Gao HTS
O=S(=O)(NCCCN1CCOCC1)c1ccc(Cl)s1	i	1.1	/	/	/	/	102
COc1nc(N)c(S(=O)(=O)c2ccccc2C)cc1C#N	i	0.88	-38	150	-2.6	-5	63
CN(CC(=O)Nc1ccccc1C(F)(F)F)C(=O)COc1cccnc1[N+](=O)[O-]	i	0.98	-25	179	/	5	101
CC(C)(C)C(=O)CNS(=O)(=O)c1ccc(S(=O)(=O)NC2CCCC2)cc1	i	0.9	-29	120	-4.6	-5	111
Nc1nc(Br)c2ccccc2c1-c1ccc(F)cc1	i	0.93	-81	95	3.9	7	102
O=C(CCC1CCCC1)Nc1cccc(Cc2ccncc2)c1	i	0.85	/	/	/	2	102
COc1cccc(C2CC(c3ccccc3)n3ncnc3N2)c1 (stereo not drawn)	i	1.1	/	/	-2.1	12	107
CCOCCCNC(=O)C1CCCN1C(=O)NC1CCCCC1 (stereo not drawn)	i	0.93	-25	83	-0.1	3	102
O=C(Cn1cc(C(=O)c2cccs2)c2ccccc21)NCc1cccs1	i	0.97	0	138	-2.9	-6	105
COC(=O)c1cc2c(ccn2-c2ccc(F)cc2)n1Cc1ccc(C#N)cc1	i	0.93	42	90	1.8	-3	89
Cc1cc(C)c2nc(NNC(=O)c3cc(-c4cccs4)nc4ccccc34)sc2c1	/	/	/	/	-2.9	-10	93
COc1cc(C2NC(=O)NC(C)=C2[N+](=O)[O-])cc(OC)c1OC (stereo not drawn)	i	1.1	/	/	/	/	100
CN(Cc1cnn(C)c1)Cc1nc(-c2ccc(Cl)cc2)no1	i	1.1	/	/	/	-5	98
Cc1ccccc1C(=O)NC(=S)Nc1cccc(NC(=O)C(C)C)c1	i	1.2	53	99	/	5	103
O=C(c1ccc(S(=O)(=O)N2CCC(c3nc4ccccc4s3)CC2)cc1)N1CCCCC1	/	/	52	75	-0.8	-4	/
O=C1CC(C2CCCO2)C(=O)N1c1ccc(Cl)c(Cl)c1 (stereo not drawn)	i	1	/	/	/	-4	101
O=C(NCC1CCCO1)c1cc2c(=O)[nH]c3ccccc3c2s1 (stereo not drawn)	i	0.95	/	/	/	2	97
O=S(=O)(Cc1ccc(Cl)cc1)NCc1cccnc1	i	0.93	/	/	/	/	100
CCOc1ccccc1NC(=S)NCC1CCCO1 (stereo not drawn)	i	1.1	-8	86	-0.7	-1	98
O=CN1N=C(c2ccccc2)CC1c1ccccc1[N+](=O)[O-] (stereo not drawn)	i	1	-41	128	-0.6	-9	105
COc1cccc(S(=O)(=O)Nc2ccc(C(=O)N3CCCCCC3)cc2)c1	i	1.1	/	/	/	9	102
O=C(C1CC=CCC1)N1CCC(CO)(Cc2ccc(Cl)cc2)CC1 (stereo not drawn)	i	0.96	/	/	/	-4	109
CCC(Sc1nc2ccc(C)cc2[nH]1)C(=O)O (stereo not drawn)	i	0.72	27	82	-3.1	-10	100
O=S(=O)(NCCc1ccc2c(c1)OCCO2)c1cccs1	i	0.99	/	/	0.4	-2	103
N#CC1CC(c2ccc([N+](=O)[O-])cc2)=NN1c1ccc([N+](=O)[O-])cc1 (stereo not drawn)	?	/	-173	141	/	-4	99

(next part)
SMILES	HSV augment	HSV augment primary fold	INS promoter inh	INS promoter inh cell count	GALR2 ag	PKD1 inh	RGS16-Gao HTS
CC1CCCCC1NC(=S)NC(=O)c1cccs1 (stereo not drawn)	i	0.85	/	/	/	/	99
CCOC(=O)c1sc(NC(=O)Nc2ccc(F)cc2)nc1C	i	0.9	44	114	0.6	9	25*
Cc1cc(/C=C2\SC(=S)NC2=O)c(C)n1C1CC1	/	/	-11	39	-2.0	-25	100
CC1CCN(C(=O)Cn2c(=O)n(Cc3ccc4c(c3)OCO4)c(=O)c3ccccc32)CC1	i	0.83	/	/	-0.5	-5	104
C=CCOc1ccnc(-c2ccccc2)n1	i	1	/	/	/	/	106
O=C(O)CC(C(=O)OCC1CCCO1)N1CCOCC1 (stereo not drawn)	i	0.99	-14	172	-1.8	-6	107
CCCNC(=O)c1ccc2c(=O)c(O)c(-c3ccc(F)cc3)[nH]c2c1	i	0.94	/	/	/	/	101
CCCCCCn1ccc(=N)cc1	i	0.99	18	85	0.5	1	103
CCOC(=O)c1sc(C)c(C(=O)NCC(C)(C)CN(C)C)c1N	i	1	3	87	-1.9	1	110
COc1cccc(NS(=O)(=O)c2cn(C)c(=O)n(C)c2=O)c1	i	0.75	/	/	-4.2	-8	105
C/C(=N/NC(=O)CNC(=O)CCc1ccccc1)c1ccc(Cl)cc1	i	1.1	/	/	/	/	95
N#CCCCCN1CCCC1	i	0.95	/	/	/	/	100
CCOC(=O)CP(=O)(c1ccccc1)c1ccccc1	i	0.97	-35	148	-2.6	1	101
Fc1cc(Br)ccc1NC(=S)NCCc1ccccc1	i	1.1	/	/	-2.1	-8	98

Grouped by structure, those above with an aryl thioether with sulfur outside any ring.
SMILES	HSV augment	HSV augment primary fold	INS promoter inh	INS promoter inh cell count	GALR2 ag	PKD1 inh	RGS16-Gao HTS
NS(=O)(=O)c1cccc(NC(=O)CSc2nnc(-c3ccccc3F)n2C2CC2)c1	i	1	/	/	/	/	101
Cc1cccn2c(CNCCSc3nccn3C)c(C(=O)N3CCCCC3)nc12	i	0.83	/	/	/	/	82
CCC(Sc1nc2ccc(C)cc2[nH]1)C(=O)O (stereo not drawn)	i	0.72	27	82	-3.1	-10	100
